D2 agonist = activates the human D2 dopamine receptor; AID 624465; DiscoveRx PathHunter D2 beta-arrestin, luminescence, 90 min; 100% = 57 uM dopamine signal; activation, % (test concentration not listed); actives 0.084% (n = 360,000); in the data active = activation above about 40%; inconclusive = about 15% to 40%; inactive = below about 15%; further: compound concentration not given in the record; the text of the record calls up to 30% inactive
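Agonist mode: compounds alone added to overnight-plated D2 PathHunter cells for 90 min at 37 C, with 57 uM final dopamine (EC100) defining full response. Beta-arrestin recruitment detected by chemiluminescent reagent, read after 1 h at ambient temperature.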
CtBP-E1A inh = blocks the CtBP interaction with E1A. actives 0.49% (n = 340,000). activity change, % (test concentration not listed). AlphaScreen GST-E1A/His-CtBP binding, 1536-well; hits give low values; control for the full effect not named in the record; in the data active means activity change below about -65%; inconclusive means about -30% to -65%; inactive means above about -30%; further: on the % scale 0 is the no-effect control and ±100 the full control effect; compound concentration not given in the record
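Steps: dispense buffer (Tris pH 8.0, NaCl 300 mM, TCEP 1 mM, BSA, Tween 20); add 5X protein mix (GST-E1A, His-CtBP, 125 nM each); pin 23 nL compound; 2 h at 37 °C, dark; add 5X beads (50 ug/mL); 1 h; read.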
D2 potentiator = potentiates the human D2 dopamine receptor allosterically; potentiation, % (test concentration not listed); actives 0.23% (n = 360,000); P14416; DiscoveRx D2 beta-arrestin cells, luminescence, 90 min; 100% = 57 uM dopamine signal; active = potentiation of 50% or more; inconclusive = 30% to 50%; inactive = 30% or less;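 further: compound concentration not given in the record; tested on top of an EC20 dose of dopamine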
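D2 cells co-treated with compound plus 50 nM dopamine (EC20) for 90 min at 37 deg C to detect potentiation. Beta-arrestin recruitment was read as enzyme-fragment luminescence after 1 h at ambient temperature. Full response was set by 57 uM dopamine.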
Six1-Eya2 blk = blocks human Six1 binding to Eya2; Q15475+O00167; actives 0.56% (n = 360,000); AID 651725; AlphaScreen GST-Six1/His-Eya2 binding, biochemical; hits give low values; control for the full effect not named in the record; activity change, % (concentration not given with the values); in the data active = activity change below about -65%; inconclusive = about -30% to -65%; inactive = above about -30%; further: on the % scale 0 is the no-effect control and ±100 the full control effect
Target sequence (O00167 whole entry, looked up): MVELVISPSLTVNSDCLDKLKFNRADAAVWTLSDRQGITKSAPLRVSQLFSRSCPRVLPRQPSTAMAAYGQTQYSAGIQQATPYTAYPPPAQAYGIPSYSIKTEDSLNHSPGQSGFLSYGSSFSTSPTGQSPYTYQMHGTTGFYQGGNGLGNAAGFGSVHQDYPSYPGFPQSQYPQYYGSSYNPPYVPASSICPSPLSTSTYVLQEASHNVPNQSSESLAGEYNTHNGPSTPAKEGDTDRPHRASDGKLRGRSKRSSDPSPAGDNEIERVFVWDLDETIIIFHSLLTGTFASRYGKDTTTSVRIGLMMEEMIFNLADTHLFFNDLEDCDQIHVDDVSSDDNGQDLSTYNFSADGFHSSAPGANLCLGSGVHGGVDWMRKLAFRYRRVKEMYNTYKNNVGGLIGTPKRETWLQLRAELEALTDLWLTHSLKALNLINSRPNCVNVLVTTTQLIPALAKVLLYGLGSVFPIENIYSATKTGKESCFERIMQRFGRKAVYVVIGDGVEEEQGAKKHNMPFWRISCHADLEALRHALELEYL
Target sequence (Q15475 whole entry, looked up): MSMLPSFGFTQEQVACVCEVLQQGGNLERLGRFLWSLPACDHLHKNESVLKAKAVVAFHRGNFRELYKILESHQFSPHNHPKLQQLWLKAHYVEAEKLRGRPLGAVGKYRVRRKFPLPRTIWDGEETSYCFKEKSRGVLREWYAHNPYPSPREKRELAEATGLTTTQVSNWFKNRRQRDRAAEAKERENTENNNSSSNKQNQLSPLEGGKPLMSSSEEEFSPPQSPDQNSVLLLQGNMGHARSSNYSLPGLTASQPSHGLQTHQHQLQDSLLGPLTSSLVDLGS
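Homogeneous AlphaScreen proximity assay pairing GST-Six1 with His-tagged Eya2 (added as 5X mix: 250 nM and 500 nM) in 50 mM Tris pH 8.0, 300 mM NaCl, 1 mM TCEP. Glutathione donor and nickel acceptor beads; 1 h, 37 °C, dark.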
gsp agonist = activates gsp, the McCune-Albright syndrome mutation | gsp mutant cells, cAMP HTRF, 30 min; control for the full effect not named in the record | actives 0.13% (n = 340,000) | Potency, µM (top dose mostly 76.9 µM), inactives show at the highest dose activation (cAMP increase), most hits filed as activators; active = well fitted activation curve with a large enough effect; inconclusive = small, poorly fitted or top-dose-only effect, or another doubt; inactive = no such curve, though single readings can be large or run the other way; cell line not stated here;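 further: phosphodiesterase inhibitor Ro 20-1724 added with compounds to block cAMP breakdown; potency means the concentration at half of the fitted maximal effect; nearly all actives have a fitted effect of over 60% in size; about a fifth of the inactives were tested at one dose only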
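Cells in DMEM/10% FBS with G418 were pretreated with compounds in DMSO plus […] (300 uM stock) for 30 min at 37C. cAMP was measured by HTRF (cAMP-d2 plus anti-cAMP antibody-K) after 30 min at room temperature.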
gsp antag = gsp mutant antagonism | gsp-mutant cells, cAMP HTRF, 30 min; control for the full effect not named in the record | Potency, µM (series often up to 76.9 µM), for the others: at the highest dose activity change, negative = inhibition, most hits filed as inhibitors | actives 0.4% (n = 340,000); active = falling curve of any shape with a large fitted effect; inconclusive = falling curve, mostly with a smaller effect; inactive = flat or rising curve; cell line not stated here;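 further: intracellular cAMP measured with PDE inhibitor Ro 20-1724 present during compound exposure; potency means the concentration at half of the fitted maximal effect; on the % scale 0 is the no-effect control and ±100 the full control effect; nearly all actives have a fitted effect of over 65% in size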
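Cells, 2000/well, grown 16–24 h in DMEM 10% FBS with 0.5 mg/ml G418, then compounds plus […] (300 uM addition stock), 30 min at 37C. cAMP read by HTRF (cAMP-d2 and anti-cAMP antibody-K in lysis buffer) after 30 min RT.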
Active calls of the source: *; ? = inconclusive; nt = not tested or not shown; [ ] = remark or other dose.

(1) Cc1nc2nc[nH]n2c(=O)c1NS(C)(=O)=O
(2) Cc1ccc(/C(=C\CN2CCCC2)c2ccccn2)cc1
(3) O=C(Nc1ccc(N2CCOCC2)c2nonc12)C1CCCC1
(4) CCN(CC)C(=O)CSc1ccccc1N
(5) N#Cc1ccc(C(=O)NN2C(=O)NC3(CCCCC3)C2=O)cc1
(6) O=C1NC(=O)C(c2cccs2)(c2cccs2)N1
(7) COc1ccc(NC(=O)CCc2ccccc2)cc1S(=O)(=O)N1CCCCC1
(8) COc1cc(OC)cc(C(=O)NNC(=O)CN2C(=O)NC3(CCCC3)C2=O)c1

Compound	1	2	3	4	5	6	7	8
D2 agonist	-2.1	3.0	-4.7	-6.4	-3.0	-0.4	-1.3	-2.4
CtBP-E1A inh	4	-4	-9	-1	-2	2	23	4
D2 potentiator	-3	-12	2	-4	-2	-3	5	-1
Six1-Eya2 blk	7	1	-20	1	11	9	3	-3
gsp agonist	2%	nt	3%	-3%	-6%[15.4 µM]	37%	-36%	-20%
gsp antag	13%	11%	-18%	3%	6%	12%	-4%	9%

(9) COc1ccc(/C=N/Nc2nc3ccccc3c(=O)[nH]2)cc1
(10) CCC(=O)N1c2ccccc2[C@@H](N(C(C)=O)c2ccccc2)C[C@H]1C
(11) CCOc1ccccc1OCC(=O)N/N=C(\C)Cc1ccc(OC)cc1
(12) CC(NC(=O)CN1C(=O)NC(Cc2ccccc2)(Cc2ccccc2)C1=O)C12CC3CC(CC(C3)C1)C2 (stereo not drawn)
(13) COc1cc(CN2CCN(c3cccc(C)c3C)CC2)cc(Br)c1O
(14) CCOc1ccccc1OCCn1ncc2ccc(OC)c(OC)c2c1=O
(15) CC(C)OCCCNc1nc2c([nH]1)c(=O)n(C)c(=O)n2C
(16) COc1ccccc1N1C(=O)CC(N2CCN(c3ccc(Cl)cc3)CC2)C1=O (stereo not drawn)

Compound	9	10	11	12	13	14	15	16
D2 agonist	-5.9	-2.0	-1.5	-8.5	2.1	-1.6	1.8	-1.1
CtBP-E1A inh	-17	0	4	-3	-11	1	-3	-12
D2 potentiator	12	11	16	-7	-16	-12	-5	-1
Six1-Eya2 blk	-7	0	-3	-1	-24	5	0	2
gsp agonist	-55%[inhibitor]	7%	-24%	10%	9%	21%	37%	2%
gsp antag	2%	8%	25%	-1%	-5%	2%	6%	2%

(17) C=CCOc1ccc(C=Nc2cccc(Cl)c2)c(O)c1
(18) COc1ccc(CCN2CC(C(=O)NCCc3ccccn3)CCC2=O)cc1 (stereo not drawn)
(19) O=C(CSc1ncccn1)N1CCc2ccccc2C1
(20) Cc1csc(NC(=O)c2ccc(S(=O)(=O)N3CCCC3)cc2)n1
(21) O=C1OCCN1C(=O)[C@H]1[C@H](c2ccc(Cl)cc2)C(c2cccc(Cl)c2)=NN1c1ccc(Br)cc1
(22) Cn1c(CC(=O)Nc2ccccc2)n[nH]c1=S
(23) COC(=O)c1ccccc1NC(=O)CSc1nncn1C
(24) Cc1cc(C)c(OCC(=O)Nc2ccccc2N2CCOCC2)c(C)c1

Compound	17	18	19	20	21	22	23	24
D2 agonist	0.5	-2.1	-1.7	2.6	-1.1	-3.5	0.9	3.6
CtBP-E1A inh	3	3	nt	0	65	3	-1	6
D2 potentiator	-7	3	-10	2	1	-7	-1	-12
Six1-Eya2 blk	1	4	7	0	50	6	2	0
gsp agonist	12%	-8%	-37%[inhibitor]	-16%	nt	-43%[inhibitor]	14%	-16%
gsp antag	15%	10%	1%	-7%	1%	13%	4%	-25%

(25) CC(=O)NS(=O)(=O)c1ccc(NC(=O)CC23CC4CC(CC(Br)(C4)C2)C3)cc1
(26) CCn1c(C)cc(C(=O)CN2C(=O)c3ccccc3S2(=O)=O)c1C
(27) NC(=O)CC(NC(=O)Cc1cccc2ccccc12)c1ccc(NCCc2cccc(F)c2)c([N+](=O)[O-])c1 (stereo not drawn)
(28) Cc1cncc(N2CCN(c3ccccn3)CC2)n1
(29) NS(=O)(=O)c1ccc(NC(=O)CSc2nnc(COc3ccccc3Cl)n2C2CC2)cc1
(30) COc1ccc(-c2ccc(-c3cc(=O)oc4c(C(C)C)ccc(C)c34)cc2)cc1
(31) CCNc1c(NS(=O)(=O)c2ccc(OC)c(Cl)c2)c(=O)oc2ccccc12
(32) COc1ccc(NC(=O)C[C@H]2C(=O)N(C3CCCCC3)C[C@@H]2C)cc1

Compound	25	26	27	28	29	30	31	32
D2 agonist	-2.4	-2.4	-3.0	-3.6	-0.2	-0.9	1.6	0.8
CtBP-E1A inh	-7	12	-4	-5	-1	-1	5	0
D2 potentiator	-6	-3	-1	-3	26	nt	15	nt
Six1-Eya2 blk	-17	-3	-5	-15	-7	3	7	-4
gsp agonist	-4%[15.4 µM]	-36%	nt	nt	22%	nt	0%	-20%
gsp antag	-19%	8%	-3%	nt	-5%	?	4%	nt

Complete entries, looked up by structure. Values in the order: D2 agonist	CtBP-E1A inh	D2 potentiator	Six1-Eya2 blk	gsp agonist	gsp antag
Results for N#Cc1ccc(C(=O)NN2C(=O)NC3(CCCCC3)C2=O)cc1 → -3.0	-2	-2	11	-6%[15.4 µM]	6%
Results for CCn1c(C)cc(C(=O)CN2C(=O)c3ccccc3S2(=O)=O)c1C → -2.4	12	-3	-3	-36%	8%
Results for Cc1csc(NC(=O)c2ccc(S(=O)(=O)N3CCCC3)cc2)n1 → 2.6	0	2	0	-16%	-7%

Next part:
(33) CSc1nc(C)c(CCOCc2ccccc2)c(=O)[nH]1
(34) COc1ccc(S(=O)(=O)N(CC(=O)NCc2ccncc2)c2cc(C)cc(C)c2)cc1OC
(35) CCOC(=O)c1cc(-c2ccccc2)nn1CCC#N
(36) CCOC(=O)c1c(C)[nH]c(C(=O)COC(=O)COc2ccccc2C)c1C
(37) Cc1ccc(NC(=O)Nc2cc(S(=O)(=O)N(C)C)ccc2C)cc1
(38) CC(C)Cn1c(N)c(C(=O)CSc2nnc(C3CC3)n2C2CC2)c(=O)n(C)c1=O
(39) CCOC(=O)N1CCN(C(=S)Nc2ccccc2C(C)C)CC1
(40) CCc1nnc(SCc2cccc(F)c2)nc1CC

Compound	33	34	35	36	37	38	39	40
D2 agonist	-2.0	4.4	1.5	0.6	-6.1	-1.7	3.1	-0.2
CtBP-E1A inh	1	4	-1	nt	-7	18	2	1
D2 potentiator	0	0	0	2	-4	7	-1	-25
Six1-Eya2 blk	3	-1	3	1	-1	0	0	22
gsp agonist	-10%	5%[15.4 µM]	-22%	-9%	22%	-7%	13%	nt
gsp antag	-40%	-10%	-3%	-9%	-24%	-11%	3%	-1%

(41) COc1ccc(C2(O)CCN(C(=O)c3c(F)cccc3F)CC2)cc1
(42) CCC(C)(C)n1nnnc1C(C(C)C)N1CCN(C)CC1 (stereo not drawn)
(43) CCC(C)(C)n1nnnc1C(c1ccc(C)cc1)N1CCN(Cc2cccnc2)CC1 (stereo not drawn)
(44) Cc1cccc(NC(=O)c2ccc(NCC3CCCO3)c([N+](=O)[O-])c2)n1 (stereo not drawn)
(45) O=C(CSc1nccn(-c2ccc(Br)cc2)c1=O)NCc1ccccc1
(46) Cc1c(C(=O)NCc2cccc(C(F)(F)F)c2)sc(=O)n1Cc1ccc(C(=O)N(C)C)cc1
(47) CCCn1c(CNC(=O)Cc2ccccc2)nc2ccccc21
(48) COc1ccc(OC)c(NC(=S)NCc2ccc(S(N)(=O)=O)cc2)c1

Compound	41	42	43	44	45	46	47	48
D2 agonist	-2.0	1.8	-2.6	3.0	-3.0	8.9	-4.4	-1.4
CtBP-E1A inh	3	11	-3	-12	-8	1	5	0
D2 potentiator	-11	-14	-29	-1	14	-2	-15	-11
Six1-Eya2 blk	4	5	6	-13	1	-6	1	4
gsp agonist	-18%	-26%	-55%[inhibitor]	11%[15.4 µM]	12%	nt	-28%	22%
gsp antag	0%	4%	-2%	-19%	-6%	nt	11%	-11%

(49) Cc1ccc(C(=O)C2=C(O)C(=O)N(Cc3cccnc3)C2c2ccc(N(C)C)cc2)o1 (stereo not drawn)
(50) Nc1nnc(SCC(=O)Nc2sc3c(c2C(=O)c2ccccc2)CCCC3)s1
(51) O=C(COC(=O)c1c2c(nc3ccccc13)/C(=C\c1cccs1)CCC2)Nc1ccccc1Cl
(52) Cc1cc(S(=O)(=O)Nc2ccc(N(C)C)cc2)c(C)s1
(53) Cc1ccc(C(=O)N2[C@@H]3CN(C)C(=O)[C@@]2(Cc2ccccc2)[C@H]2C(=O)N(Cc4ccccc4)C(=O)[C@@H]32)cc1
(54) O=C(NCCc1ccc(Cl)cc1)C1CCN(c2cnccn2)CC1
(55) CC1Cc2ccccc2N1C(=O)COC(=O)CNC(=O)c1ccc(Br)o1 (stereo not drawn)
(56) COc1ccc(S(=O)(=O)N2CCc3ccccc32)cc1OC
(57) O=C(CCc1ccccc1)Nc1c(F)c(F)c(F)c(F)c1F
(58) Cc1ccc(SCC(=O)O/N=C(\N)c2ccncc2)cc1
(59) Cc1cc(C)c(S(=O)(=O)N2CCCOC2CNC(=O)C(=O)NCCCn2ccnc2)c(C)c1 (stereo not drawn)

Compound	49	50	51	52	53	54	55	56	57	58	59
D2 agonist	-3.6	-5.6	3.3	3.7	-2.2	0.8	-0.9	-3.4	-1.5	-1.4	-2.3
CtBP-E1A inh	3	-8	34	-22	-6	-2	1	-1	-1	5	-14
D2 potentiator	1	-8	10	8	-4	2	-15	-10	-15	-12	-17
Six1-Eya2 blk	-8	-20	24	-25	2	0	2	1	3	7	1
gsp agonist	-8%[15.4 µM]	-23%[15.4 µM]	-2%[15.4 µM]	-26%	nt	-7%	0%	-2%	-114%[inhibitor]	-11%	21%
gsp antag	4%	-21%	2%	-7%	2%	-1%	-7%	-5%	3%	8%	6%

Compounds listed so far with bromine (5):
(13) COc1cc(CN2CCN(c3cccc(C)c3C)CC2)cc(Br)c1O
(21) O=C1OCCN1C(=O)[C@H]1[C@H](c2ccc(Cl)cc2)C(c2cccc(Cl)c2)=NN1c1ccc(Br)cc1
(25) CC(=O)NS(=O)(=O)c1ccc(NC(=O)CC23CC4CC(CC(Br)(C4)C2)C3)cc1
(45) O=C(CSc1nccn(-c2ccc(Br)cc2)c1=O)NCc1ccccc1
(55) CC1Cc2ccccc2N1C(=O)COC(=O)CNC(=O)c1ccc(Br)o1 (stereo not drawn)

Compound	13	21	25	45	55
D2 agonist	2.1	-1.1	-2.4	-3.0	-0.9
CtBP-E1A inh	-11	65	-7	-8	1
D2 potentiator	-16	1	-6	14	-15
Six1-Eya2 blk	-24	50	-17	1	2
gsp agonist	9%	nt	-4%[15.4 µM]	12%	0%
gsp antag	-5%	1%	-19%	-6%	-7%
